# PV pol inh: poliovirus RNA polymerase inhibition; P03300; poliovirus polymerase elongation, fluorescence polarization; hits give low values; % elongation, % (compound at 16.7 µg/mL); actives 0.66% (n = 150,000); in the data active = % elongation below about 90%; also: some results filed as inactive read as strong as hits
# Target sequence (P03300 1749-2209 limits assumed): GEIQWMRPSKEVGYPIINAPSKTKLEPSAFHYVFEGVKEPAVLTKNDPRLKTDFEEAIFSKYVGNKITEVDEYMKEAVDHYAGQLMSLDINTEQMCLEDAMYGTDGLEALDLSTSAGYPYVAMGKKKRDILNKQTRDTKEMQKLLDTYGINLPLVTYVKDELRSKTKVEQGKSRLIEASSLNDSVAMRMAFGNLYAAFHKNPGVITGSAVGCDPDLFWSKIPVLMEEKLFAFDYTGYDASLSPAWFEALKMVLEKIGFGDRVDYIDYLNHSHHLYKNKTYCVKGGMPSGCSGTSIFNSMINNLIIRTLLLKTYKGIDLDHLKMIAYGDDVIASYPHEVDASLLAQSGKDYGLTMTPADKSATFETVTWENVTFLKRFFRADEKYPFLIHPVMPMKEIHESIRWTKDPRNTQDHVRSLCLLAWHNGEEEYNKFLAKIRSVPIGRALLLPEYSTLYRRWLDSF
# PV pol inh intensity: recorded beside PV pol inh, whose call it bears; % elongation; measured here: total intensity read-out; formula for this scale not given here;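 total fluorescence in place of polarization; lower means less elongation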
# The depositor's hits bear a star. This is a subset; rates above refer to the full screens.
SMILES,PV pol inh,PV pol inh intensity
CCN(CC)CCCNC(=O)c1ccc2nc(N3CCCCC3)sc2c1,104.0,106.0
Cc1ccc(OCCCC(=O)Nc2sc3c(c2C(N)=O)CCCC3)cc1,101.0,100.0
O=C(CCCn1c(=O)c2cccn2c2ccccc21)Nc1cc(C(F)(F)F)ccc1Cl,113.0,118.0
Cc1cccc(C(=O)Nc2nnc(S(=O)(=O)N(C)c3ccccc3C)s2)c1,102.0,107.0
Cc1ccccc1-c1nnc(SCC(=O)N2CCCCC2)o1,108.0,109.0
Cc1cc2c(cc1S(=O)(=O)NCc1ccc(F)cc1)OCC(=O)N2,101.0,107.0
COc1ccc(-c2nc(CSc3nncn4c3cc3oc(C)cc34)c(C)o2)cc1,107.0,111.0
Cc1cccc(Cn2c(=O)n3nc(-c4ccccc4)nc3c3ccccc32)c1,105.0,106.0
O=C(Nc1ccc(S(=O)(=O)N2CCC(c3nc4ccccc4s3)CC2)cc1)c1ccc(F)cc1,111.0,118.0
Nc1c(C(=O)Nc2ccc(C(F)(F)F)cc2)sc2nc(-c3cccs3)ccc12,117.0,146.0
CCc1nn(CCCC(=O)NCc2cc(Br)ccc2OC)c(=O)c2cc3occc3n12,113.0,109.0
COc1ccc(OCC(=O)Nc2cc(-c3nc4ccccc4o3)ccc2Cl)cc1,110.0,110.0
Cc1ccc(NC(=O)c2cccc(NC(=O)N3CCSc4ncccc43)c2)cc1Cl,106.0,100.0
CC(C)(C)C1CCc2c(sc3nnn(CCOc4ccccc4)c(=O)c23)C1 (stereo not given),108.0,112.0
Cc1cc(C)cc(NC(=O)N2CCC(CN3CCOCC3)CC2)c1,105.0,109.0
Cc1ccccc1-c1noc(CSc2nnc(-c3ccncc3)n2-c2ccc(F)cc2)n1,100.0,98.0
CCOC(=O)c1cc(-c2ccc(OC)cc2)n(CCC(=O)Nc2cccc(C(C)=O)c2)c1C,103.0,111.0
COc1ccc(N2CCN(c3ncnc4c3cnn4-c3ccc(C)c(Cl)c3)CC2)cc1,108.0,113.0
COC(=O)c1ccccc1NC(=O)C1CCCN(C(=O)c2cnn(-c3ccc(F)cc3)c2-n2cccc2)C1 (stereo not given),102.0,104.0
COC(=O)c1scc(-c2ccc(C)cc2)c1S(=O)(=O)Nc1cc(Cl)c(OC)cc1OC,107.0,113.0
CCOc1ccccc1NC(=O)CSc1nc2cc(OC)c(OC)cc2c2nc(-c3ccccc3)nn12,100.0,103.0
Cc1ccc(CSc2nc3cccnc3n2Cc2ccc(C(=O)NC3CC3)cc2)cc1,113.0,116.0
Cc1cccc(CNC(=O)c2ccc(Cn3c(SCc4cccc(F)c4)nc4cccnc43)cc2)c1,102.0,103.0
CCCCN(CC)C(=O)Cn1nc(C)c2c(C)n(-c3ccccc3)nc2c1=O,111.0,114.0
CCc1ccc(NC(=O)CC2C(=O)N(c3ccccc3)C(=O)N2C(C)C)cc1 (stereo not given),108.0,105.0
# Additional compounds.
SMILES,PV pol inh,PV pol inh intensity
Cc1ccc(C)c(CNC(=O)c2ccc3c(c2)nc2n3CCOC2)c1,119.0,112.0
COc1ccc(S(=O)(=O)N(CC(=O)Nc2cccc(C)c2)c2ccc(C)cc2)cc1OC,107.0,115.0
CCOC(=O)c1ccc(NC(=O)C2=C(C)C(=O)OC23CCCCCC3)cc1,106.0,110.0
Cc1ccc(C2CC(=O)n3nc(-c4ccc(Cl)cc4)nc3S2)cc1 (stereo not given),100.0,100.0
CCCc1cc(=O)[nH]c(Nc2ccc(C(=O)O)cc2)n1,102.0,104.0
COc1ccc(CCNC(=O)Cn2c(=O)cc(C(F)(F)F)c3c(C)nn(C)c32)c(OC)c1,115.0,111.0
Cc1ccc(Nc2c(-c3ccc(N4CCOCC4)cc3)nc3ccc(Cl)cn23)cc1,106.0,109.0
O=C(NCCc1csc(-c2ccc(Cl)cc2)n1)c1cccs1,105.0,112.0
COCCn1c(CNC(=O)c2ccc(C)cc2)nc2cccnc21,106.0,108.0
Cc1ccc(C)c(N2CCN(C(=O)C3CCN(Cc4nc(-c5cccc(Cl)c5)oc4C)CC3)CC2)c1,105.0,105.0
COC(=O)c1ccc(NS(=O)(=O)c2ccc3[nH]c4c(c3c2)CCCCC4)cc1,108.0,101.0
CCC(C)Nc1ncnc2c1cnn2-c1ccc(F)cc1 (stereo not given),111.0,105.0
CCOc1ccc(NC(=O)C2CCCN(c3nnc(C)c4c(C)n(-c5ccccc5)nc34)C2)cc1 (stereo not given),102.0,98.0
COc1ccc(Br)cc1CNCc1c(C(=O)O)c(C)n(Cc2ccccc2C)c1C,103.0,105.0
COc1ccc(C)c2sc(N(Cc3cccnc3)C(=O)C3CCCCC3)nc12,107.0,107.0
CCCOc1ccc(C2C(=O)N(C3CCCCC3)CC(=O)N2CCc2ccccc2)cc1OC (stereo not given),110.0,110.0
CC(NC(=O)c1cc(-c2ccc(Cl)cc2)on1)c1ccccc1 (stereo not given),109.0,110.0
Cc1ccc(-n2ncc3c(NC4CCCC4)ncnc32)cc1,104.0,109.0
O=C(CCOc1ccccc1)N(Cc1cccnc1)c1nc2c(F)cc(F)cc2s1,114.0,113.0
COc1ccc(Cl)cc1Nc1ncnc2c1nc1n2CCCC1,106.0,105.0
CCOc1ccc(S(=O)(=O)N(CC(=O)NCCSCc2ccccc2)c2ccccc2)cc1,98.0,99.0
CCOc1ccc(/C=C/c2nc(C#N)c(NCc3ccc(OC)cc3)o2)cc1,109.0,116.0
CCOC(=O)c1scc(-c2ccc(C)cc2)c1S(=O)(=O)Nc1cc(Cl)ccc1OC,111.0,111.0
COc1ccc(CCNC(=O)Cc2c(C)c3c(cc(C)c4c(C)coc43)oc2=O)cc1,114.0,111.0
CCCc1nn2c(=O)cc(COC(=O)c3ccc(NC(=O)C(C)Oc4ccccc4)cc3)nc2s1 (stereo not given),98.0,106.0
# Continued.
SMILES,PV pol inh,PV pol inh intensity
COc1ccc2c(c1)CC(C(=O)NCCN1CCN(c3cccc(C)c3C)CC1)CO2 (stereo not given),113.0,105.0
O=C(NCc1ccccc1Cl)c1cc(=O)[nH]c2ccc(S(=O)(=O)N3CCCCC3)cc12,109.0,111.0
CC(C)Oc1ccc(C(=O)Nc2ccc3oc(-c4ccncc4)nc3c2)cc1,101.0,105.0
O=C(CSc1nnc(-c2ccc([N+](=O)[O-])cc2)o1)Nc1ccccc1,106.0,103.0
COc1ccc(OC)c(-c2cc(C(=O)Nc3ccc(C)c(C)c3)no2)c1,104.0,105.0
COC(=O)c1c(SC)nc2ccccc2c1OCc1cccc(C)c1,106.0,107.0
CCN(CC)CC(C)CNC(=O)CN1C(=O)CSc2ccc(S(=O)(=O)N3CCOCC3)cc21 (stereo not given),102.0,94.0
COc1ccc(OCC(=O)Nc2c(C(=O)N3CCN(c4ccccc4)CC3)oc3ccccc23)cc1,107.0,111.0
CC(C)c1cnc2c(c1SCc1ccc([N+](=O)[O-])cc1)c(=O)n(C)c(=O)n2C,112.0,110.0
O=C(c1ccc2c(c1)N(Cc1ccccc1F)C(=O)c1ccccc1S2(=O)=O)N1CCOCC1,105.0,108.0
CCC(=O)Nc1cc(C)c(O)c(-c2nc3ncccc3o2)c1,107.0,108.0
COc1ccc(OC)c(NC(=O)c2cc3cc4ccc(C)cc4nc3s2)c1,114.0,117.0
COc1cccc(NS(=O)(=O)c2ccc3[nH]cc(C(=O)NC(C)c4ccccc4)c(=O)c3c2)c1 (stereo not given),101.0,105.0
COc1ccc2cc3cc(C(=O)Nc4ccccc4C)oc3nc2c1,104.0,103.0
CCCN(C(=O)c1cc2c(=O)oc3ccccc3c2s1)c1cccc(Cl)c1,101.0,103.0
Cc1ccc(C)c(CN2C(=O)c3ccccc3Sc3ccc(C(=O)N4CCC5(CC4)OCCO5)cc32)c1,108.0,107.0
O=C(NCc1ccccc1)C(=O)NCC(c1ccco1)S(=O)(=O)c1ccccc1 (stereo not given),108.0,111.0
COCCN1CCN(Cc2ccc(C(=O)NC(C)C)cc2)C(=O)C1=O,110.0,112.0
COc1ccc(-c2coc3c2c(C)cc2oc(=O)c(CC(=O)O)c(C)c23)cc1,110.0,105.0
Cc1ccc(CNC(=O)C2CCN(S(=O)(=O)c3cccc4nonc34)CC2)cc1,107.0,110.0
CCc1nc(SCC(=O)Nc2ccc(NC(C)=O)cc2)n[nH]1,108.0,109.0
O=C(CCc1ccccc1)N(Cc1cccnc1)c1nc2ccc(F)cc2s1,105.0,105.0
CCOC(=O)c1cccc(NS(=O)(=O)c2ccc(-c3cnc(C4CC4)o3)cc2)c1,105.0,108.0
COc1ccccc1NC(=O)CCC(=O)N1CC(C)Oc2ccc(C)cc21 (stereo not given),112.0,107.0
CCOC(=O)c1ccc(NC(=O)c2cn(-c3ccccc3)nc2-c2ccc(C)cc2)cc1,108.0,110.0

# Three entries from above, arranged by heavy-atom count, high to low:
SMILES,PV pol inh,PV pol inh intensity
CCOC(=O)c1ccc(NC(=O)c2cn(-c3ccccc3)nc2-c2ccc(C)cc2)cc1,108.0,110.0
O=C(CCc1ccccc1)N(Cc1cccnc1)c1nc2ccc(F)cc2s1,105.0,105.0
COc1ccc(OC)c(-c2cc(C(=O)Nc3ccc(C)c(C)c3)no2)c1,104.0,105.0

# (continued)
SMILES,PV pol inh,PV pol inh intensity
COc1ccc(C(=O)NNc2ncnc3c2cnn3-c2ccccc2)cc1,97.0,95.0
Cc1ccc(-c2nc(CS(=O)CC(=O)NCc3ccccc3Cl)c(C)o2)cc1 (stereo not given),105.0,108.0
COc1ccccc1C(=O)Nc1c(C(=O)N(C)c2ccccc2)sc2nc(C)cc(C)c12,96.0,88.0
CCC(=O)N1CCc2cc(OC)c(OC)cc2C1COc1ccc2c(C)cc(=O)oc2c1 (stereo not given),108.0,108.0
CCc1ccc(C2CC(=O)c3c([nH]c(C(=O)OCc4ccc(C)cc4)c3C)C2)cc1 (stereo not given),111.0,113.0
CCOC(=O)c1c(NC(=O)/C=C/c2ccc(C)cc2)sc2c1CCCC2,106.0,112.0
C=C(C)Cn1c(=O)c2c(nc3n2CCN3c2cc(C)cc(C)c2)n(C)c1=O,107.0,111.0
CCOc1ccc2nc(N3CCCC(C(=O)NCCc4ccc(SC)cc4)C3)sc2c1 (stereo not given),106.0,105.0
Cc1ccc(NC(=O)Cn2cc(C(=O)c3cccs3)c3ccccc32)cc1C,102.0,102.0
COc1ccc(N2CCN(S(=O)(=O)CCNC(=O)C3CC(=O)N(c4ccccc4)C3)CC2)cc1 (stereo not given),102.0,109.0
Cc1ccc(NC(=O)CSc2ccc(-c3ccccn3)nn2)cc1F,111.0,109.0
O=C(C1COc2ccccc2O1)N1CCN(c2nc3c(F)cccc3s2)CC1 (stereo not given),105.0,105.0
O=C(CN1C(=O)C2CCCCN2c2ccc(C(=O)N3CCCC3)cc21)NCc1cccc(Cl)c1 (stereo not given),103.0,112.0
CCOCCCNC(=O)c1ccc2c(=O)n(CCc3ccc(OC)c(OC)c3)c(=O)[nH]c2c1,104.0,110.0
O=C(CCCn1c(=O)[nH]c2ccc(Br)cc2c1=O)N1CCN(c2cccc(Cl)c2)CC1,105.0,104.0
CCC(=O)N1CCc2cc(S(=O)(=O)N(C)c3cccc(C)c3)ccc21,115.0,110.0
CC1CCN(S(=O)(=O)c2ccc3c(c2)CCN3C(=O)Nc2ccc(Br)cc2)CC1,104.0,110.0
COc1cccc(-c2ccc3c(N)c(C(=O)Nc4ccc(C)c(F)c4)sc3n2)c1,110.0,118.0
O=C(NCCCN1CCCCC1)c1[nH]c2ccccc2c1Sc1ccc(Cl)cc1,110.0,118.0
Cc1ccc(CNC(=O)C2CCCN(c3nn4cc(-c5ccc(C)cc5)nc4s3)C2)cc1 (stereo not given),107.0,106.0
CC(C)c1ccc(NC(=O)Cn2cc(S(=O)(=O)Cc3cccc(Cl)c3)c3ccccc32)cc1,107.0,116.0
Cc1ccc(CNC(=O)CCCCn2c(=O)c3ccccc3n(Cc3ccc(Cl)cc3)c2=O)cc1,105.0,107.0
COc1ccc(NC(=O)Cn2cnc3sc(C)c(S(=O)(=O)N4CCN(C)CC4)c3c2=O)cc1OC,105.0,98.0
CC(=O)Nc1ccc(Nc2nc3c(S(=O)(=O)c4cccc(Cl)c4)nnn3c3ccsc23)cc1,100.0,107.0
COc1ccc(S(=O)(=O)n2nc(C)c(S(=O)(=O)N3CCC(C)CC3)c2C)cc1OC,101.0,107.0
# (further entries)
SMILES,PV pol inh,PV pol inh intensity
Cc1ccc(Nc2nnc(-c3cc4c(ccc5ccccc54)oc3=O)s2)cc1,113.0,123.0
CNC(=O)c1c(NC(=O)Cc2coc3ccc(OC)cc23)sc2c1CCCC2,97.0,104.0
Cc1nn(C(C)C(=O)NCc2ccco2)c(=O)c2nn(-c3ccccc3)c(C)c12 (stereo not given),104.0,106.0
Cc1cc(C)cc(-n2c(SCC(=O)N3CCOCC3)nc3c([nH]c4ccccc43)c2=O)c1,110.0,97.0
COc1cccc(NC(=O)Cn2c(=O)n(-c3ccc(Cl)cc3)c(=O)c3oc4ccccc4c32)c1,101.0,104.0
CCN(CC)S(=O)(=O)c1ccc(NC(=O)c2c(C)oc3ncnc(N4CCCCC4)c23)cc1,99.0,103.0
COc1ccc(Cl)cc1NC(=O)CSC1=Nc2ccccc2C2=NC(CC(=O)NCc3cccs3)C(=O)N12 (stereo not given),111.0,112.0
CSc1ncc(Cl)c(C(=O)Nc2c(C(=O)Nc3cccc(C)c3)oc3ccccc23)n1,117.0,112.0
COc1ccccc1C(=O)Nc1ccc2c(c1)nc(CN1CCCCC1)n2C,104.0,107.0
CC(=O)Nc1c(C)nn(-c2ccccc2)c1N1CCC(C(=O)NCc2ccccc2Cl)CC1,114.0,117.0

# Part of the list above, with two lines to a compound.
# The line under a structure holds: PV pol inh | PV pol inh intensity
Cc1cc(C)cc(-n2c(SCC(=O)N3CCOCC3)nc3c([nH]c4ccccc43)c2=O)c1
    110.0 | 97.0
COc1ccccc1C(=O)Nc1ccc2c(c1)nc(CN1CCCCC1)n2C
    104.0 | 107.0
COc1ccc(Cl)cc1NC(=O)CSC1=Nc2ccccc2C2=NC(CC(=O)NCc3cccs3)C(=O)N12 (stereo not given)
    111.0 | 112.0
Cc1nn(C(C)C(=O)NCc2ccco2)c(=O)c2nn(-c3ccccc3)c(C)c12 (stereo not given)
    104.0 | 106.0

# Compounds listed so far with a COOH group:
SMILES,PV pol inh,PV pol inh intensity
CCCc1cc(=O)[nH]c(Nc2ccc(C(=O)O)cc2)n1,102.0,104.0
COc1ccc(Br)cc1CNCc1c(C(=O)O)c(C)n(Cc2ccccc2C)c1C,103.0,105.0
COc1ccc(-c2coc3c2c(C)cc2oc(=O)c(CC(=O)O)c(C)c23)cc1,110.0,105.0
